Compound activity from PubChem.
A1 inh: caspase 3/7 activation in MEF A1-2A-BIM cells, primary screen, A1 inhibitor project, cell-based, luminescence, HTS; Caspase-Glo 3/7 luminescence, 3 h; percent of clofoctol response, vehicle zero; caspase activation, % (concentration not given with the values); hit rate 0.066% among 330,000; AID 2462, 2010;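 active = over half of replicate activation scores above 10%, or exactly half above 10 with the replicate mean above 10; inconclusive = replicate mean below 10 yet half the replicates above 10; inactive = over half of replicates below 10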;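 also: wells of about 30 µL received 50 nL stock; many hits fall short of the cut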
Ecoli growth: E. coli growth inhibition, primary screen, OD600; Escherichia coli growth, 23 h; active compounds read low; OD600 absorbance (test concentration not listed); hit rate 0.21% among 330,000;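 active = OD600 absorbance below the run mean of sample wells minus 3.6 SD, in any replicate, cut at about 0.56 in these data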;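 also: stock transfer was 300 nL into about 60 µL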
Ecoli rRNA inh: reduced GFP signal of wild-type E. coli, primary screen, bacterial rRNA inhibitor project, GFP/RFP fluorescence, OD600, single point | GFP signal change (wild-type ribosome), % (no concentration beside the values) | hit rate 1.6% among 350,000 | E. coli WT GFP vs humanized-ribosome RFP mutants, 24 h; active compounds read low; DMSO median 0, no signal -100;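 active = significant combined selectivity score with lowered wild-type GFP, culture density cut under 30%, mutant RFP and density less affected; inactive = any of these conditions unmet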; also: one replicate is shown; some compounds called inactive have numbers as strong as hits
AF4-AF9 inh: inhibitors of AF4 peptide binding to AF9, primary screen, biochemical, AlphaScreen, biotin-AF4 peptide, FLAG-AF9, single point | inhibition, % at 10 µM | Protein AF-9 (Homo sapiens), P42568 | hit rate 0.47% among 350,000;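 active = every replicate reaching a set inhibition limit, whatever the replicate mean, cut at about 25% in these data; inconclusive = mean inhibition reaches that limit but some replicates miss it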;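 also: 0% = plate neutral control median and 100% = total signal loss; the record names both 10 and 1 µM as test concentration; the first replicate is given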
UCH37 DUB inh: inhibitors of human UCH37 deubiquitinase, primary screen, biochemical, Ub-AMC cleavage, fluorescence. purified proteasome/UCH37. AID 588478, 2011. inhibition, % (no concentration beside the values). Ubiquitin carboxyl-terminal hydrolase isozyme L5 (Homo sapiens), Q9Y5K5. hit rate 0.33% among 330,000;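 active = mean of two replicates above 20%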;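 also: 0% = compound-free wells with enzyme and 100% = wells lacking proteasome; stock transfer was 100 nL into about 20 µL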
Target sequence (Q9Y5K5 whole entry, looked up): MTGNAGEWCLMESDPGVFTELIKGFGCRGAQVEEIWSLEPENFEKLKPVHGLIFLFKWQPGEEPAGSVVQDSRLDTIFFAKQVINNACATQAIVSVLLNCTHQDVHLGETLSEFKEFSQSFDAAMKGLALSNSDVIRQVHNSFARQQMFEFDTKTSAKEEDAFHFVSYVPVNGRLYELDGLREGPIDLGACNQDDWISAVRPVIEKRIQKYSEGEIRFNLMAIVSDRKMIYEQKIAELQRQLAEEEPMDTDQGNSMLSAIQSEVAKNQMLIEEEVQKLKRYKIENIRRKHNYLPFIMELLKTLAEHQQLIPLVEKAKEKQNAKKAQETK
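System: Proteasome-associated human UCH37 deubiquitinase; Input: 0.15 nM proteasome in added enzyme buffer; Also added: Ub-AMC substrate from 1 µM stock; Incubation: 30 min compound-proteasome preincubation then 25 min substrate reaction, room temperature; Detection: fluorescence, ex 355 nm, em 460 nm; Read-out: % inhibition of Ub-AMC cleavage fluorescence; Benchmarks: no-proteasome and no-compound wells.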
T cruzi repl: inhibitors of intracellular T. cruzi growth, primary screen, luminescence, NIH3T3 host cells. hit rate 1.4% among 300,000. inhibition, % (concentration not given with the values). AID 1885, 2009. T. cruzi beta-gal in NIH3T3, 90 h;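 active = mean inhibition across valid replicates above about 55%, limit read from the data; inconclusive = mean below that limit but half or more replicates reach it; inactive = mean below it, under half of replicates reach it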;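 also: signal also drops with host cell toxicity which is not excluded here; 0% = plate median of DMSO wells and 100% = zero luminescence signal; higher percent means less beta-gal luminescence so fewer parasites; stock transfer was 50 nL into about 50 µL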
Beta apoptosis: inhibitors of cytokine-induced beta cell apoptosis, primary screen, luminescence. INS-1E cytokine-induced death, ATP luminescence, 48 h; percent of positive-control rescue, neutral wells zero. protection from apoptosis, % (test concentration not listed). hit rate 0.8% among 300,000;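 active = all replicates at 75% or more, or half of them and the mean; inconclusive = half reach 75% but not the mean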;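 also: 0% = cytokine-treated negative control wells and 100% = positive control rescue; higher means more ATP so stronger rescue from cytokine killing; wells of about 40 µL received 100 nL stock; the first replicate is given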
FGF22 binding: binders of human FGF22 protein, primary screen, FGF22 synaptogenesis inhibitor project, biophysical, thermal shift, single point; Fibroblast growth factor 22 (Homo sapiens), Q9HCT0; recombinant FGF22 thermal shift, SYPRO orange fluorescence; percent of sucrose octasulfate shift, DMSO zero; calls only at 9.99 µM; hit rate 1.5% among 340,000;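 active = melting point raised past a set limit in the mean and every replicate; inconclusive = no clear call; three in four hits are not shown here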
Target sequence (Q9HCT0 whole entry, looked up): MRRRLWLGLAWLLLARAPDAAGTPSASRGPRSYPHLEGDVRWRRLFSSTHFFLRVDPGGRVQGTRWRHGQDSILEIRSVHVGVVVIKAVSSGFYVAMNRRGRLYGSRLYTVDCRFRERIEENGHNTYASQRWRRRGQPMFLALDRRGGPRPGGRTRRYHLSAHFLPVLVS
Ecoli rRNA inh OD600: further read-out of Ecoli rRNA inh, marked with its call; OD600 change, %; measured here: OD600 growth;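 optical density of the mix in the first replicate; 0 = DMSO median and -100 = no signal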
Ecoli rRNA inh RFP: second read-out of Ecoli rRNA inh, no call of its own (marks repeat the call); RFP signal change, %; measured here: RFP humanized mutant strains;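 first replicate; 0 = DMSO median and -100 = no signal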
The depositor's hits bear a star; i = inactive; ? = inconclusive; / = not tested or not shown.

Values run as follows: A1 inh	Ecoli growth	Ecoli rRNA inh	Ecoli rRNA inh OD600	Ecoli rRNA inh RFP	AF4-AF9 inh	UCH37 DUB inh	T cruzi repl	Beta apoptosis	FGF22 binding
1: COc1ccc(S(=O)(=O)Nc2nc3ccccc3nc2Nc2ccc3c(c2)OCO3)cc1
 : -0.3	0.68	/	/	/	/	3.8	-9	/	/
2: Cc1ccc(C)c(C(=O)CN2C(=O)CCC2=O)c1
 : 0.8	0.7	/	/	/	/	-0.1	-12	-4	/
3: Cc1ncoc1C(=O)Nc1ncc([N+](=O)[O-])s1
 : -8.0	0.64	-1	7	9.5	-0.6	11	-10	15	i
4: COc1ccc(S(=O)(=O)Cc2ccc(C(=O)N3CCN(c4ccc(Cl)cc4)CC3)o2)cc1
 : 0.1	0.78	-11	-30	6.9	-0.7	3.9	3	/	i
5: COc1ccc(CNC(=O)c2cccc(NC(=O)c3ccccc3)c2)cc1
 : -0.1	0.64	9	12	1.3	-1.1	1.0	-9	2	i
6: CCn1c(SCC(=O)Nc2ccc(NC(C)=O)cc2)nc2c1c(=O)n(C)c(=O)n2C
 : 0.2	0.72	4	-3	-0.4	-0.6	2.1	0	-2	i
7: Cc1cc2c(sc3ccccc32)c(C)n1
 : 0.8	0.6	-24*	1.0*	-0.9*	-4.5	2.4	6	-3	i
8: Cc1ccc(-c2nc(Nc3ccc(N4CCOCC4)cc3)c3ccccc3n2)cc1
 : ?	/	11	12	1.1	17	/	18	2	i
9: COc1nc(C)c2cc(C)oc2n1
 : 0.4	0.7	9	10	-0.6	-8.6	2.5	-5	-6	i
10: CCOc1ccc(S(=O)(=O)N2CCC(C(=O)N3CCOCC3)CC2)cc1C
 : 0.0	0.66	3	7	-1.0	0.5	4.9	-13	-3	i
11: CN(C[C@H](Cc1ccccc1)N(C[C@@H](CC1CCCCC1)N(CCc1ccccc1)N=O)N=O)N=O
 : 1.0	/	4	6	0.5	/	4.6	-11	2	i
12: CCn1nc(C(=O)OCC(=O)c2ccc3c(c2)OCCO3)c2ccccc2c1=O
 : -2.3	0.75	/	/	/	/	5.1	13	-3	/
13: Cc1ccc(C=Nc2cccnc2N)cc1
 : -0.8	/	/	/	/	/	7.0	-1	-7	/
14: COc1cc(CN2CCCC(C(=O)N3CCc4ccccc4C3)C2)cc(OC)c1OC (centres undefined)
 : 0.4	0.66	4	2	-0.7	2.9	2.5	41	2	i
15: CC1CCCC(C)N1CCCNC(=O)CN1C(=O)COc2ccc(S(=O)(=O)N3CCOCC3)cc21 (centres undefined)
 : 0.4	0.69	1	-1	-0.6	-3.9	-0.7	-8	-8	i
16: COc1cccc(C2NC(=O)CCC2[N+](=O)[O-])c1OC (centres undefined)
 : 2.1	0.65	-55	-78	-20	0.4	0.1	-11	-2	i
17: O=C1c2ccccc2-c2cccnc21
 : 0.4	0.64	1	-1	-2.2	0.5	1.3	8	/	i
18: O=C1CC(SC2=NCCS2)C(=O)N1c1ccc(Br)cc1 (centres undefined)
 : 1.2	0.71	6	0	0.0	-0.3	5.5	-13	-5	i
19: Cc1ccc(SCC(=O)OC(C)C(=O)NCc2ccccc2)cc1C (centres undefined)
 : 0.0	0.69	-8	-26	2.1	-2.5	1.5	-3	-11	i
20: CNC(=O)NC(=O)CN1C(=O)NC2(CCOc3ccccc32)C1=O (centres undefined)
 : -0.1	0.65	2	10	-0.2	-1.5	0.1	-1	-3	i

(cont.)
Values run as follows: A1 inh	Ecoli growth	Ecoli rRNA inh	Ecoli rRNA inh OD600	Ecoli rRNA inh RFP	AF4-AF9 inh	UCH37 DUB inh	T cruzi repl	Beta apoptosis	FGF22 binding
21: CC(c1nc2scc(-c3ccccc3)c2c(=O)[nH]1)N1CCN(CC(=O)NC2CC2)CC1 (centres undefined)
 : /	0.64	8	1	4.4	-19	0.9	/	/	i
22: CCOc1cc(N2CCOCC2)c(OCC)cc1NC(=O)CSc1nc(N)cc(=O)[nH]1
 : 0.3	0.71	3	9	-2.3	-0.4	2.2	/	-3	i
23: O=c1[nH]n2c(=O)c3c([nH]c2c1N=Nc1cccc(C(F)(F)F)c1)CCCC3
 : -0.3	0.66	/	/	/	/	15	3	2	/
24: O=C(NC1CCS(=O)(=O)C1)c1ccc2c(c1)OCO2 (centres undefined)
 : -0.4	0.68	6	5	0.1	-16	1.6	-4	-4	i
25: O=C(CN1CCN(c2cccc(C(F)(F)F)c2)CC1)N(C1CCCC1)C1CCS(=O)(=O)C1 (centres undefined)
 : 1.6	0.64	0	-10	0.6	2.1	4.5	/	26	i
26: CSc1nc2ccccc2n1C(=O)Oc1ccccc1
 : -1.8	0.69	/	/	/	/	1.5	-7	3	/
27: Cc1cc(C(=O)NCCCn2ccnc2)cs1
 : -0.8	0.67	/	/	/	/	2.6	-24	14	/
28: Cn1c(C(=O)N[C@@H](Cc2ccccc2)C(=O)O)cc2cc(Cl)ccc21
 : 0.6	0.68	-16	-13	-10	-10	1.3	-11	-1	i
29: Cc1ccc(N(CC(=O)NCCc2ccccc2)C(=O)CCC(=O)Nc2cc(C)ccn2)cc1
 : 0.5	0.67	1	6	0.3	3.5	1.2	2	4	i
30: Cc1cc(C)c(NC(=O)CSc2nc3c(c(=O)n2C)SC(C)C3)c(C)c1 (centres undefined)
 : -0.1	0.78	12	11	1.9	-6.2	6.7	3	1	i
31: COc1ccc(OC)c(NC(=O)c2ccc(CN(c3cc(Cl)ccc3C)S(=O)(=O)c3ccccc3)cc2)c1
 : -0.5	0.73	/	/	/	/	-3.1	6	10	/
32: O=S(=O)(c1ccc(Br)s1)N1CCN(CCc2ccccc2)CC1
 : 0.3	0.7	3	6	1.1	3.0	4.3	/	3	i
33: CCOC(=O)C1=C(C)Nc2sc(C(=O)c3ccc(OC)cc3)c(N)c2C1c1ccc(C(=O)OC)cc1 (centres undefined)
 : 0.1	0.73	85	4	16	-77	-50	18	1	i
34: O=C(O)CC(CC(=O)Nc1nncs1)c1ccccc1 (centres undefined)
 : 0.5	0.72	/	/	/	/	-0.6	-7	1	/
35: Cc1nc(Nc2cc(F)ccc2C)c2nnn(Cc3ccccc3)c2n1
 : 0.4	/	-7	-8	-5.0	2.4	/	20	2	i
36: Cc1ccc(C(C(=O)NC2CCCC2)N(C(=O)c2csnn2)c2ccccc2)o1 (centres undefined)
 : 0.6	0.71	4	1	-1.9	0.0	2.3	1	1	i
37: CCOC(=O)CSc1nc(Nc2ccc3c(c2)OCO3)c2ccccc2n1
 : -1.2	0.68	/	/	/	/	-1.4	25	5	/
38: Clc1ccc(CN=C(Nc2ccccc2)NC2CCCCC2)cc1
 : -0.4	0.63	-21	-37	8.7	4.7	2.7	49	3	i
39: Cc1ccnc(NC(=O)C2CC(=O)N(Cc3ccccc3)C2)c1 (centres undefined)
 : -0.1	0.63	2	6	1.5	-0.9	-1.9	9	-30	i
40: O=c1c[n+]([O-])c2ccccc2n1OCc1c(F)cccc1F
 : 0.4	0.73	/	/	/	/	-2.9	-11	-5	/

Later entries:
Values run as follows: A1 inh	Ecoli growth	Ecoli rRNA inh	Ecoli rRNA inh OD600	Ecoli rRNA inh RFP	AF4-AF9 inh	UCH37 DUB inh	T cruzi repl	Beta apoptosis	FGF22 binding
41: O=C(/C=C/c1ccccc1)c1ccc(NC2=NCCCS2)cc1
 : -3.6	0.65	-26*	-20*	9.4*	10	2.7	/	1	i
42: Cc1ccccc1N(CC(=O)NCCc1ccccc1)C(=O)c1ccc(N2CCCC2)nc1
 : 0.9	0.76	/	/	/	/	2.9	5	/	/
43: CCN(c1cccc(C)c1)C(C(=O)Nc1ccc(OC)cc1)c1cc2c(cc1[N+](=O)[O-])OCO2 (centres undefined)
 : 0.0	0.71	/	/	/	/	3.3	7	-1	/
44: CCCn1c(CN2CCN(C(=O)OCC)CC2)nc2c1c(=O)n(C)c(=O)n2C
 : /	0.76	2	10	-4.4	3.2	-4.3	4	10	i
45: Cc1ccc2occ(/C=C/C(=O)c3ccccc3O)c(=O)c2c1
 : -0.3	0.74	/	/	/	/	7.5	/	-3	/
46: CCc1nn2c(=O)cc(CSc3nc(C)cc(=O)[nH]3)nc2s1
 : 0.1	0.7	15	15	0.3	2.1	3.4	-2	-7	i
47: Cc1ccc2c(c1)nnn2C1CCN(S(=O)(=O)c2ccc(C(=O)N3CC(C)CC(C)C3)cc2)CC1 (centres undefined)
 : 0.0	0.73	/	/	/	/	1.6	10	24	/
48: O=C(Nc1ccc(C(=O)O)cc1)Nc1cccc([N+](=O)[O-])c1
 : -4.4	/	11	5	-7.1	0.5	/	-8	/	i
49: Cc1ccc(NC(=O)Nc2ccccc2F)cc1S(=O)(=O)N1CCOCC1
 : -1.7	0.64	-16	-28	2.2	1.6	2.4	/	-3	i
50: Cc1cc(C(F)(F)F)c(C#N)c(N2CCOCC2)n1
 : -0.4	0.73	/	/	/	/	-12	-2	4	/
51: CC(C)c1cc(C(=O)O)n(-c2ccccc2)n1
 : 0.5	0.7	-5	7	5.1	-4.7	1.9	-6	-1	i
52: CCOc1ccc(NC(=O)CSc2nc3ccsc3c(=O)n2CCC(=O)O)cc1
 : -2.1	0.67	0	1	-4.6	-2.5	2.1	3	/	i
53: N#CC1(NC(=O)CSc2ccccn2)CCCCC1
 : -0.8	0.67	5	10	-2.3	-4.0	-0.7	1	/	i
54: O=C(N=C1SC2CS(=O)(=O)CC2N1c1cc(Cl)ccc1Cl)C1CC1 (centres undefined)
 : 0.2	0.72	3	4	-1.2	1.7	3.9	2	-3	i
55: Cc1ccc(S(=O)(=O)N/N=C/c2ccc(C#N)cc2)cc1
 : -0.2	/	4	7	-1.7	-1.5	/	-6	-5	i

Only part of the results is shown; count on the stated rates, not on these rows.
